# Screening data (PubChem BioAssay)
# AF4-AF9 inh: inhibitors of human MLL-AF4/AF9 interaction; 0.47% of 350,000 active; AlphaScreen, biotin-AF4 peptide binding to FLAG-AF9; inhibition, % at 10 µM; AID 651704;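 active = every replicate reaching a set inhibition limit, whatever the replicate mean, cut at about 25% in these data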;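 note: 0% = plate neutral control median and 100% = total signal loss; the record names both 10 and 1 µM as test concentration; the first replicate is given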
# Target sequence (P42568 whole entry, looked up): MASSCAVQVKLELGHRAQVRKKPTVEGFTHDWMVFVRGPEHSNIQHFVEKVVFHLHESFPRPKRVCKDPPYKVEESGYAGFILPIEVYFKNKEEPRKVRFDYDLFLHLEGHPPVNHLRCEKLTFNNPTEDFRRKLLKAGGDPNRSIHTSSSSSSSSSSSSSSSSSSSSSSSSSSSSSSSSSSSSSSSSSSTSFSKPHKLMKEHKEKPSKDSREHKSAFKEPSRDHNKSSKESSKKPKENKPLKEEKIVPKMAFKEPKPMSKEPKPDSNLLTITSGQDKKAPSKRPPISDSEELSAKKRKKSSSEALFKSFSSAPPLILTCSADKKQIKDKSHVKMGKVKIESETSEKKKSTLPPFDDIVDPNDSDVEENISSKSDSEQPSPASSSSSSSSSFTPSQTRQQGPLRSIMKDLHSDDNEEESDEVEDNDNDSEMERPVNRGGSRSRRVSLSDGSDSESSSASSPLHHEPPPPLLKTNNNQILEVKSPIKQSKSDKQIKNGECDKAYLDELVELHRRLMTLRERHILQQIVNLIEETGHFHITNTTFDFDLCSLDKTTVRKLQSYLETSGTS
# * = called active by the depositor. An excerpt (hit frequency here may not be typical).
SMILES,AF4-AF9 inh
COc1cccc(CNC(=O)C[C@@H]2CC[C@@H](NS(=O)(=O)c3ccccc3OC)[C@@H](CO)O2)c1,-1.3
C[C@H](CO)N1C[C@H](C)[C@H](CN(C)Cc2ccccc2F)Oc2cc(C3=CCCCC3)ccc2S1(=O)=O,7.0
Cc1noc(C)c1NC(=O)Nc1ccc2c(c1)C(=O)N([C@H](C)CO)C[C@H](C)[C@H](CN(C)C(=O)Nc1cccc3ccccc13)O2,-3.3
O=C(C[C@@H]1CC[C@@H]2[C@H](COC[C@H](O)CN2C(=O)c2ccccc2)O1)N1CCc2ccccc2C1,-1.8
Cc1cc(Br)c2nc(-c3ccc(Cl)cc3)c(Cc3cccc(Cl)c3)n2c1,-1.2
C[C@@H]1CCCCO[C@@H](CN(C)CC2CCCCC2)[C@@H](C)CN([C@H](C)CO)C(=O)c2cc(NC(=O)Nc3cccc4ccccc34)ccc2O1,-1.5
C[C@@H]1CCCCO[C@H](CN(C)C(=O)C2CCCCC2)[C@@H](C)CN([C@@H](C)CO)C(=O)c2cc(NC(=O)Nc3ccc(C(F)(F)F)cc3)ccc2O1,-0.3
CCCC(=O)Nc1ccc2c(c1)C(=O)N(C)C[C@@H](OC)[C@@H](C)CN(C(=O)c1ccccn1)[C@@H](C)CO2,-3.2
O=C(C[C@@H]1CC[C@H](NC(=O)C2CCC2)[C@H](CO)O1)NCc1ccccc1Cl,-1.2
O=C(O)C[C@H]1C[C@H]2c3cc(NC(=O)c4ccc5c(c4)OCO5)ccc3O[C@H]2[C@@H](CO)O1,0.8
COc1ccc(S(=O)(=O)N(C)C[C@@H]2Oc3ccc(NS(=O)(=O)c4ccc(F)cc4)cc3C(=O)N([C@@H](C)CO)C[C@@H]2C)cc1,0.9
C[C@@H]1CCCCO[C@@H](CN(C)C(=O)Nc2ccc3c(c2)OCO3)[C@H](C)CN([C@@H](C)CO)C(=O)c2cc(NS(C)(=O)=O)ccc2O1,-1.7
COc1ccc(NC(=O)Nc2ccc3c(c2)C(=O)N([C@H](C)CO)C[C@H](C)[C@H](CN(C)Cc2ccc4c(c2)OCO4)O3)cc1,8.0
N#C[C@@H]1[C@@H](c2ccc(-c3ccccc3F)cc2)[C@@H](CO)N1C(=O)C1CCC1,-1.2
CO[C@@H]1CN(C)C(=O)c2cc(NC(=O)c3ccc(F)cc3)ccc2OC[C@H](C)N(C(C)=O)C[C@@H]1C,0.3
C[C@@H]1CCCCO[C@H](CN(C)Cc2ccncc2)[C@@H](C)CN([C@H](C)CO)C(=O)c2cc(NC(=O)CCCN(C)C)ccc2O1,-4.6
CC(=O)N(C)C[C@@H]1Oc2cc(C#CC3(O)CCCC3)ccc2S(=O)(=O)N([C@@H](C)CO)C[C@H]1C,-2.4
CC(C)(C)OC(=O)N1C[C@@]23C[C@H](c4cccc(F)c4)[C@@H](C[C@@H]2S1(=O)=O)O3,-0.3
COc1ccc2c3c(n(C)c2c1)[C@H](CO)N(C(C)=O)CC31CN(Cc2ccccc2OC)C1,-1.1
C[C@@H]1CN([C@H](C)CO)S(=O)(=O)c2ccc(C#CCN(C)C)cc2O[C@@H]1CN(C)C(=O)c1ccccc1F,2.2

# As a working copy, part of the list above.
SMILES,AF4-AF9 inh
COc1ccc2c3c(n(C)c2c1)[C@H](CO)N(C(C)=O)CC31CN(Cc2ccccc2OC)C1,-1.1
C[C@@H]1CN([C@H](C)CO)S(=O)(=O)c2ccc(C#CCN(C)C)cc2O[C@@H]1CN(C)C(=O)c1ccccc1F,2.2

# Compounds shown so far with an aryl methoxy group (4):
SMILES,AF4-AF9 inh
COc1cccc(CNC(=O)C[C@@H]2CC[C@@H](NS(=O)(=O)c3ccccc3OC)[C@@H](CO)O2)c1,-1.3
COc1ccc(S(=O)(=O)N(C)C[C@@H]2Oc3ccc(NS(=O)(=O)c4ccc(F)cc4)cc3C(=O)N([C@@H](C)CO)C[C@@H]2C)cc1,0.9
COc1ccc(NC(=O)Nc2ccc3c(c2)C(=O)N([C@H](C)CO)C[C@H](C)[C@H](CN(C)Cc2ccc4c(c2)OCO4)O3)cc1,8.0
COc1ccc2c3c(n(C)c2c1)[C@H](CO)N(C(C)=O)CC31CN(Cc2ccccc2OC)C1,-1.1

# Returning to the listing with the 2 entries that preceded the break.
SMILES,AF4-AF9 inh
COc1ccc2c3c(n(C)c2c1)[C@H](CO)N(C(C)=O)CC31CN(Cc2ccccc2OC)C1,-1.1
C[C@@H]1CN([C@H](C)CO)S(=O)(=O)c2ccc(C#CCN(C)C)cc2O[C@@H]1CN(C)C(=O)c1ccccc1F,2.2
COCCNC(=O)C[C@@H]1CC[C@@H]2[C@@H](COc3ccc(NC(=O)Nc4cccc(F)c4)cc3C(=O)N2C)O1,-1.7
COCCNC(=O)C[C@H]1CC[C@H]2[C@H](COc3ccc(NS(=O)(=O)c4ccc(Cl)cc4)cc3C(=O)N2C)O1,-1.4
COc1ccc2c3c(n(C)c2c1)[C@H](CO)N(CC1CC1)CC31CN(Cc2nccs2)C1,1.8
C[C@H]1CN([C@@H](C)CO)C(=O)c2cc(C#Cc3ccccc3)cnc2O[C@@H]1CN(C)C(=O)CCN1CCCCC1,12
C[C@H](CO)N1C[C@H](C)[C@H](CN(C)C(=O)Nc2ccc3c(c2)OCO3)Oc2ccc(NC(=O)C3CC3)cc2CC1=O,-2.4
C[C@H](CO)N1C[C@H](C)[C@@H](CN(C)Cc2cncnc2)Oc2ncc(C#CC3(O)CCCC3)cc2C1=O,-3.7
C[C@@H]1CN([C@@H](C)CO)C(=O)c2cccc(NC(=O)c3ccncc3)c2O[C@H]1CN(C)C(=O)NC1CCCCC1,-3.5
CCN1[C@H](C(=O)NC2CCCC2)[C@@H](CO)[C@@H]2Cn3c(ccc(-c4ccccc4F)c3=O)[C@@H]21,-2.9
O=C(C[C@@H]1C[C@H]2c3cc(NC(=O)c4cccnc4)ccc3O[C@H]2[C@@H](CO)O1)NCc1cccnc1,2.6
N#C[C@H]1[C@@H](c2ccc(C3=CCCCC3)cc2)[C@H](CO)N1C(=O)c1cccc(F)c1,1.5
COc1ccccc1-c1cn(CC[C@H]2CC[C@@H](NC(=O)Cc3ccccn3)[C@@H](CO)O2)nn1,-0.9
C[C@H](O)C#Cc1ccc2c(c1)O[C@@H](CN(C)Cc1ccccn1)[C@H](C)CN([C@@H](C)CO)S2(=O)=O,2.0
O=S(=O)(c1ccc(F)cc1)N1CCCCN2[C@H](C1)[C@@H](c1ccc(-c3cncnc3)cc1)[C@@H]2CO,-4.3
Cc1noc(C)c1NC(=O)Nc1ccc2c(c1)C(=O)N([C@@H](C)CO)C[C@H](C)[C@@H](CN(C)C(=O)Nc1ccc(C(F)(F)F)cc1)OCCCC[C@@H](C)O2,3.4
COc1ccc(NC(=O)Nc2ccc3c(c2)CC(=O)N([C@@H](C)CO)C[C@H](C)[C@H](CN(C)Cc2ccc4c(c2)OCO4)O3)cc1,-0.1
O=C(Nc1cccc(Cl)c1)NN(c1ccccc1)C1CCS(=O)(=O)C1 (centres undefined),0.4
C[C@@H]1CCCCO[C@H](CN(C)C(=O)Nc2cccc3ccccc23)[C@H](C)CN([C@@H](C)CO)C(=O)c2cc(NC(=O)Nc3ccc(C(F)(F)F)cc3)ccc2O1,-1.5
C[C@@H]1CN([C@H](C)CO)C(=O)Cc2cc(NC(=O)NC3CCCCC3)ccc2O[C@H]1CN(C)Cc1ccc(C(F)(F)F)cc1,-1.9
Cc1nc(C(F)(F)F)ccc1C(=O)N1CCC1(C)C(=O)NS(=O)(=O)c1ccc(Cl)cc1 (centres undefined),2.5
CS(=O)(=O)N1[C@H](CO)[C@@H](c2ccc(C#CC3CCCCC3)cc2)[C@@H]1C#N,5.8
C[C@H]1CN([C@@H](C)CO)C(=O)Cc2cc(NC(=O)Nc3cccc4ccccc34)ccc2O[C@@H]1CN(C)Cc1ccc(C(=O)O)cc1,-2.9
C[C@@H]1CN([C@@H](C)CO)C(=O)c2cc(-c3cccc(F)c3)cnc2O[C@@H]1CN(C)S(C)(=O)=O,-7.0
Cc1cn(C2CCCCO2)c(=O)nc1NO (centres undefined),-1.9
COCC(=O)Nc1ccc2c(c1)C(=O)N(C)C[C@@H](OC)[C@H](C)CN(Cc1cccc(F)c1)[C@H](C)CO2,-1.2
C[C@H](CO)N1C[C@H](C)[C@@H](CN(C)C(=O)c2ccncc2)Oc2ncc(-c3ccc(C(=O)N(C)C)cc3)cc2C1=O,-3.7
CCC(=O)Nc1ccc2c(c1)OC[C@@H](C)N(C(=O)c1ccccc1F)C[C@@H](C)[C@H](OC)CN(C)C2=O,-0.3
COc1cccc(C#Cc2ccc([C@H]3[C@@H](CO)N4C(=O)CN(C(=O)c5ccccc5)C[C@H]34)cc2)c1,-0.6
CCN1C(=O)[C@H]2[C@@H](c3ccccc3)N[C@]3(CCCN(Cc4ccc(C)cc4)C3=O)[C@H]2C1=O,-2.6
C[C@H](CO)N1C[C@H](C)[C@H](CN(C)C(=O)Nc2ccc(F)cc2)OCCCC[C@H](C)Oc2ccc(NC(=O)C3CCCCC3)cc2C1=O,-2.4
C[C@@H]1CCCCO[C@@H](CN(C)C(=O)Nc2ccc3c(c2)OCO3)[C@H](C)CN([C@@H](C)CO)C(=O)c2cc(NS(=O)(=O)c3ccc(Cl)cc3)ccc2O1,-14
CO[C@@H]1CN(C)C(=O)c2cc(NC(=O)C3CCOCC3)ccc2OC[C@H](C)N(C)C[C@@H]1C,-1.1
COc1ccc(CN(C)C[C@@H]2Oc3c(NC(=O)Nc4ccccc4)cccc3C(=O)N([C@H](C)CO)C[C@@H]2C)cc1,-2.6
COc1ccc(NC(=O)Nc2ccc3c(c2)C(=O)N([C@@H](C)CO)C[C@H](C)[C@@H](CN(C)S(=O)(=O)c2ccccc2)OCCCC[C@@H](C)O3)cc1,-2.1
O=c1[nH]c(=S)[nH]c2c1C(c1cccc(C(F)(F)F)c1)OC(CCc1ccccc1)C2 (centres undefined),-3.2
C[C@@H]1CN([C@@H](C)CO)C(=O)c2cc(NC(=O)Nc3ccccc3)ccc2O[C@@H](C)CCCCO[C@@H]1CN(C)Cc1ccc2c(c1)OCO2,1.0
COCCNC(=O)C[C@@H]1C[C@H]2c3cc(NC(=O)c4cccnc4)ccc3O[C@H]2[C@@H](CO)O1,-1.8
C/C=C/c1ccc([C@@H]2[C@@H](CO)N(C(C)=O)[C@@H]2CN(CC)C(=O)CN(C)C)cc1,-2.5
CC(C)NC(=O)Nc1ccc2c(c1)C(=O)N([C@H](C)CO)C[C@H](C)[C@H](CN(C)C)OCCCC[C@@H](C)O2,-12
COc1ccc(S(=O)(=O)Nc2ccc3c(c2)[C@H]2C[C@H](CC(=O)NCC4CC4)O[C@H](CO)[C@H]2O3)cc1,-5.3
COc1cccc(CNC(=O)c2cc3c(c(-c4cccc(-c5ccncc5)c4)n2)[C@H](CCO)N([S@@](=O)C(C)(C)C)C3)c1,7.9
O=S(=O)(CCNCc1ccco1)NC1CCCCC1,-3.3
O=C1C[C@@H]2c3c(cccc3CN1Cc1ccccc1)C[C@@H](O)[C@H]2O,-7.0
CCC(=O)N1[C@@H](CO)[C@@H](c2ccccc2)[C@@H]1CN(CC)C(=O)c1ccccc1,-1.2
C[C@H]1CCCCO[C@@H](CN(C)C)[C@@H](C)CN([C@@H](C)CO)C(=O)c2cc(NS(=O)(=O)c3ccc(Cl)cc3)ccc2O1,-4.7
COc1ccc(NC(=O)C2(C)Cc3c(-c4ccc(C(N)=O)cc4)ccnc3O2)cc1OC (centres undefined),-0.2
COCC(=O)N(C)C[C@@H]1Oc2cc(C#CC3CC3)ccc2S(=O)(=O)N([C@@H](C)CO)C[C@@H]1C,-1.2
C[C@@H]1CCCCO[C@@H](CN(C)C(=O)Nc2ccc3c(c2)OCO3)[C@@H](C)CN([C@@H](C)CO)C(=O)c2cc(NC(=O)CCCN(C)C)ccc2O1,3.3
CCC(=O)Nc1ccc2c(c1)C(=O)N(C)[C@@H]1CC[C@@H](CC(=O)NCCN3CCCCC3)O[C@@H]1CO2,0.5
Cc1ccc(-c2ccc([C@H]3[C@@H](CO)N4CCCCN(C(=O)Nc5ccccc5)C[C@@H]34)cc2)cc1,-6.2
Cc1ccc(S(=O)(=O)N2CCN(C(=O)COC(=O)COc3ccc(Cl)cc3)CC2)c(C)c1,-0.6
CCCCCc1c(-c2cccc(Cl)c2)ncn1CCc1ccccc1OC,-0.8
C[C@H](O)C#Cc1cnc2c(c1)C(=O)N([C@@H](C)CO)C[C@@H](C)[C@H](CN(C)C(=O)Cc1ccncc1)O2,-3.0
COc1ccc(S(=O)(=O)Nc2cccc3c2O[C@@H](CN(C)C(=O)NC(C)C)[C@@H](C)CN([C@H](C)CO)C3=O)cc1,-1.9
Cn1nc(C(C)(C)C)cc1NC(=O)C1(C)CCN1C(=O)Cc1ccc(-c2ccccc2)cc1 (centres undefined),2.8
C[C@H]1CN([C@@H](C)CO)C(=O)c2cc(NC(=O)Cn3cnnn3)ccc2O[C@@H]1CN(C)CC1CCCCC1,0.6
CC(C)(C)c1ccc(CC(=O)N2CCC2(C)C(=O)NCc2ccc3c(c2)OCO3)cc1 (centres undefined),-0.3
C[C@@H]1CCCCO[C@@H](CN(C)Cc2ccc(C(=O)Nc3ccccc3N)cc2)[C@@H](C)CN([C@H](C)CO)C(=O)c2cc(NS(C)(=O)=O)ccc2O1,4.6
Cc1ccc(NS(=O)(=O)c2ccc(C)c(NC(=O)c3ccc(S(=O)(=O)N4CCCCCC4)cc3)c2)c(C)c1,-1.1
COc1ccc(S(=O)(=O)Nc2ccc3c(c2)[C@@H]2C[C@@H](CC(=O)NCC4CC4)O[C@@H](CO)[C@@H]2O3)cc1,-11
C[C@@H]1CN([C@@H](C)CO)C(=O)c2cc(N(C)C)ccc2O[C@@H](C)CCCCO[C@H]1CN(C)C(=O)Nc1cccc2ccccc12,6.8
CC1C=NC(S(=O)(=O)N2CC[C@@H]3[C@H](CO)N(C)c4ccc(-c5ccccc5)cc4[C@@H]32)=N1 (some centres undefined),-1.8

# Part of the list above in order of number of heavy atoms, highest first.
SMILES,AF4-AF9 inh
C[C@@H]1CN([C@@H](C)CO)C(=O)c2cc(N(C)C)ccc2O[C@@H](C)CCCCO[C@H]1CN(C)C(=O)Nc1cccc2ccccc12,6.8
COc1ccc(S(=O)(=O)Nc2ccc3c(c2)[C@@H]2C[C@@H](CC(=O)NCC4CC4)O[C@@H](CO)[C@@H]2O3)cc1,-11
COCC(=O)N(C)C[C@@H]1Oc2cc(C#CC3CC3)ccc2S(=O)(=O)N([C@@H](C)CO)C[C@@H]1C,-1.2
